# CapD inh – CapD enzyme inhibition | z-score (concentration not given with the values) | AID 492967 | hit rate 0.23% among 140,000 | purified CapD enzyme, fluorescence intensity read-out; stronger effect = lower value; some hits fall short of the stated cut;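 active = z-score under -4 in either of two replicates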;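 note: stock transfer was 100 nL into about 40 µL; score is relative to mean and spread of the plate; one replicate is shown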
# AID504770 – growth inhibitors of E. coli YBA685 in a screen for V. cholerae RctB (chromosome II replication) inhibitors. hit rate 0.27% among 130,000. z-score (test concentration not listed). E. coli YBA685 rctB-dependent plasmid, OD600 growth, 3 h; stronger effect = lower value;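 active = z-score under -2 on both plates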;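 note: wells of about 30 µL received 100 nL stock; score is relative to mean and SD of the test wells; the first replicate is given; strong numbers were not always called active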
# Numbers without * were called inactive; x = no result given.
Molecule	CapD inh	AID504770
CCSC1(SCC)N=C(N)C2(C#N)C(c3ccccc3Br)C12C#N (centres undefined)	-0.47	0.85
O=C(c1cc(C2CC2)nn1-c1ccccc1)N1CCN(c2ccccn2)CC1	x	-0.1
N/C(=N\O)c1ccc([N+](=O)[O-])cc1	-1.08	x
CCOC(=O)c1cnc2c(ccc3ccccc32)c1NCCOC(=O)c1cccnc1	0.795	0.5
Cc1nnc(SC(C)C(=O)NC(C)(C#N)C(C)C)n1-c1ccccc1 (centres undefined)	x	0
CCCCNC(=O)c1cc(=O)[nH]c2ccc(Br)cc12	-1.3	0.95
O=C(COCc1cc2cccc3c2n(c1=O)CCC3)NCc1ccccn1	10.4	x
O=C1/C(=C/c2cccs2)SC(=S)N1Cc1ccccc1	-0.25	-0.1
Cc1n[nH]c(C)c1CCc1nc2c3ccccc3nc(SCC#N)n2n1	0.2	1.85
O=C(NCc1ccc(Cl)cc1)c1cc2cccc3c2n(c1=O)CCC3	5.51	x
O=c1c2ccccc2c2nc3c(c(-c4cccc(Br)c4)c12)c(=O)c1ccccc13	6.95	x
O=C(Cn1c(=O)oc2cc(S(=O)(=O)N3CCCCC3)ccc21)N1CCCCC1	0.005	-0.4
COC(=O)c1cc(COC(=O)CNC(=O)C23CC4CC(CC(C4)C2)C3)oc1C	x	-0.65
CC(CCc1ccccc1)NC(=O)c1ccc2ccccc2c1 (centres undefined)	72.7	-0.05
c1ccc(Nc2ncnc3sccc23)cc1	x	0.15

# (further entries)
Molecule	CapD inh	AID504770
CC1=C(C(N)=O)C(c2cccs2)NC(=S)N1 (centres undefined)	-0.18	-0.25
CCOC(=O)c1oc2ccccc2c1C	0.3	0.1
O=C1C(Nc2ccc(O)cc2)=C(n2nnc3ccccc32)C(=O)c2ccccc21	-1.09	-0.5
COc1ccc(CC(=O)N2CCN(C(=O)Cc3ccc(OC)cc3)CC2)cc1	x	1.45
O=C(COC(=O)[C@@H]1CC(O)CN1S(=O)(=O)c1ccc2c(c1)OCCO2)c1ccccc1 (some centres undefined)	x	-0.25
CC(=O)OCC1=C(C(=O)O)N2C(=O)[C@@H](NC(=O)CCCC(N)C(=O)O)C2SC1 (some centres undefined)	1.06	-1.4
S=C(/N=C(\Nc1ccccc1)c1ccccc1)Nc1ccccc1	-0.825	0.15
CNC(=S)Nc1ccc(N2CCN(c3ccc(C(F)(F)F)cn3)CC2)nc1	0.135	-0.6
COC(=O)c1cc(OC)c(OC)c(OC)c1NS(=O)(=O)c1cc(Cl)cc(Cl)c1	0.69	x
Cc1nc2ccc(NC(=O)N(C(C)C)C(C)C)cc2s1	2.61	-0.7
CS(=O)(=O)c1sc(C(=O)Sc2cccs2)c2c1C=CCC2	-0.375	-1.3
NC(=O)c1snnc1-c1ccccc1	-0.495	-0.8
Clc1ccc(Cn2cc(-c3nc4ccccc4o3)cn2)c(Cl)c1	-0.305	x
Cc1cc2c(c(=O)o1)C(c1ccccc1OC(=O)N1CCOCC1)C(C#N)=C(N)O2 (centres undefined)	-0.735	x
CCCNC(=O)CSc1nnc(-c2ccncc2)n1CCOC	x	-0.25

# (listing goes on)
Molecule	CapD inh	AID504770
CCOC(=O)Cc1c[nH]c2ccccc12	1.96	1.15
O=C1c2sc3nnc(-c4ccccc4)c(=O)n3c2C(=O)N1c1ccc(Cl)c(Cl)c1	0.32	x
CCC(C)NC(=O)c1oc2ccc3c(c2c1C)C(=O)CC1(CCCC1)O3 (centres undefined)	3.38	0.25
CC(C)OP(=O)(OC(C)C)/C(CC12CC3CC(CC(C3)C1)C2)=N\O	0.06	x
CN(C)c1ccc(-c2nc3cc(NC(=O)c4ccc(Br)cc4)ccc3o2)cc1	10.3	x
COc1ccc(-c2cn3cc(Cl)ccc3n2)cc1OC	79	-0.55
O=C(O)c1ccc(CSCc2c(F)cccc2Cl)o1	0.67	-0.85
CSc1ncccc1C(=O)OCc1ccccc1	-0.42	0.4
Cc1cccc(NC(=O)CC(=O)c2ccccc2)c1	-1.06	0
CCOC(=O)c1sc(S(C)(=O)=O)c2c1CCCC2O (centres undefined)	-0.315	x
COc1ccc(OC)c(C2C3CCCC=C3C(C#N)=C(N)C2(C#N)C#N)c1 (centres undefined)	0.395	x
Cc1ccc(CSCC(=O)O)cc1	x	0.25
COc1cscc1C(N)=O	0.43	x
Brc1ccc(-c2nnco2)cc1	-0.08	-1.05
O=C1Cc2ccccc2C(c2ccc(Cl)cc2)N1 (centres undefined)	0.07	x

# The list continues:
Molecule	CapD inh	AID504770
Cc1cc(C(=O)O)c(C)o1	1.2	0.2
CCOC(=O)c1c(NC(=O)C(C)Sc2nnc(CNC(=O)COc3ccc(Cl)cc3Cl)n2C)sc2c1CCCC2 (centres undefined)	-0.345	x
CCCCc1ccc(-c2nc(C=Nc3ccc(Cl)c([N+](=O)[O-])c3)c(O)o2)cc1	0.045	x
C=C(C)c1cccc(C(C)(C)NC(=O)NNc2nc(C)cc(C)n2)c1	x	1
COc1ccc(-c2csc(Nc3cccnc3)n2)cc1	0.01	-0.5
C=CCSc1nc(C)c(C(=O)Nc2ccccc2)c(-c2ccc(OC)cc2)c1C#N	-0.665	x
O=C(C1CCCN(Cc2ccccc2)C1)N1CCCCCC1 (centres undefined)	0.85	0.6
Cn1cc(Cl)c(/C=C(\C#N)S(=O)(=O)C(C)(C)C)n1	0.185	0
O=c1ccc2ccccc2n1Nc1ccc(Br)cc1	-0.49	1
CCN(CC(=O)Nc1ccc(S(N)(=O)=O)cc1)CC(=O)Nc1cc(Cl)ccc1C	x	0.2
CCCCc1ccc(NC(=O)CC)c(C)c1	-0.285	0.9
CSc1sc(C(=O)NNC(=O)OCC2(C)COC2)cc1-c1nc(C)cs1	2.24	x
CC1(C)CC(=O)c2c(nn(-c3ccccc3)c2N)C1	0.055	-1.2
COc1ccc(N(C(=O)/C=C/c2ccccc2)C2=CC3CCC(C2)N3C)cc1 (centres undefined)	-0.565	x
O=C(COc1ncnc2c1cnn2-c1ccccc1)N1CCN(S(=O)(=O)c2ccc(Cl)cc2)CC1	x	-0.25

# An excerpt of these results, with values under each structure:
# Every second line gives: CapD inh, AID504770
CCN(CC(=O)Nc1ccc(S(N)(=O)=O)cc1)CC(=O)Nc1cc(Cl)ccc1C
    x, 0.2
CCCCc1ccc(NC(=O)CC)c(C)c1
    -0.285, 0.9

# The list continues.
Molecule	CapD inh	AID504770
CN(C)S(=O)(=O)NCC1CCCO1 (centres undefined)	0.465	-0.7
COc1ccc(-n2nc(C(=O)Nc3cnc4ccccc4c3)c3ccccc3c2=O)c(OC)c1	0.46	x
N#CC(C(=O)c1cccs1)=C1SCCS1	-1.58	0.15
Clc1cccc(-c2noc(-c3ccsc3)n2)c1	-0.055	1.25
CCOC(=O)CN1CSC2=C(C#N)C(c3ccc(OC)cc3)CC(=O)N2C1 (centres undefined)	-1.08	0.55
CCn1c(=NC(=O)C2CC2)sc2c(OC)ccc(OC)c21	x	2.25
CC(C)(C)C(=O)[C@@H]1[C@@H](c2ccc(F)cc2)C(C#N)(C#N)[C@H]2C=Cc3ccccc3N12	4.25	x
COc1ccc(-c2nnc(C3CCN(C(=O)c4c(F)cccc4F)CC3)o2)cc1	0.99	2.1
c1ccc2c(c1)N1CCN=C1N2CCN1CCCCC1	-0.385	x
N#CC1(C#N)[C@@H]2c3ccccc3C=CN2[C@@H](C(N)=O)[C@@H]1c1ccc(Cl)cc1	7.38	x
COc1cccc(C2C3=C(CC(C)(C)CC3=O)OC3=C2C(=O)CC(C)(C)C3)c1O	-0.035	x
COC(=O)C(C)NC(=O)N1CCC2(CC1)NC(=O)c1ccccc1O2 (centres undefined)	0.025	0.05
CCc1nn2c(=O)cc(CSc3nnc(N)s3)nc2s1	0.575	-0.8
CCOC(=O)Cc1csc(NC(=O)c2c(O)c3cccc4c3n(c2=O)CCC4)n1	-0.45	x
O=C(Cc1cccc2ccccc12)Nc1cc2c3c(c1)C1CCCC1CN3CC1CCCC21 (centres undefined)	-0.05	x

# More results follow.
Molecule	CapD inh	AID504770
NCC(O)COc1c(Cl)cccc1Cl (centres undefined)	-0.645	x
NC(=O)c1ccc[n+](CCO)c1	0.42	-0.45
COc1cc2c(cc1OC)CN(C(=O)c1cccc(S(=O)(=O)N3CCCCC3)c1)CC2	x	-0.3
Cc1nc2cc3c(cc2s1)OCO3	x	0.6
Cc1ccc(C)c(N2CCN(C(=O)c3ccc4nc(N5CCOCC5)sc4c3)CC2)c1	-0.11	-0.7
CCN(c1ccccc1)S(=O)(=O)c1ccc(C(=O)OCC#N)cc1	x	-0.4
O=c1sc2ccccc2n1Cc1nnc(SCc2ccccn2)n1-c1ccccc1	-0.185	-0.45
CCN(CC)CCN1C(=O)c2ccccc2NC1c1ccc2c(c1)OCO2 (centres undefined)	x	1.8
CCSc1ccc(C(=O)NCC(=O)O)cc1	-0.955	-0.45
COc1ccc(C(CC(=O)c2ccco2)SCc2ccco2)cc1OC (centres undefined)	-0.42	x
O=C(Cc1ccc(Cl)cc1)Nc1ccc(-c2nnc3n2CCCCC3)cc1	0.295	0.6
Cc1cc(C(=O)NCc2cccs2)cs1	-0.005	-0.55
CCOc1cc(/C=C/C(=O)O)ccc1OCC(C)C	10.1	-0.75
CN(C(=O)Nc1ccccc1)C1CCS(=O)(=O)C1 (centres undefined)	x	-0.7
CN(C(=O)c1cc2nc(-c3ccco3)cc(C(F)(F)F)n2n1)C12CC3CC(CC(C3)C1)C2	x	1.7

# A section taken from the entries so far:
Molecule	CapD inh	AID504770
CN(C(=O)Nc1ccccc1)C1CCS(=O)(=O)C1 (centres undefined)	x	-0.7
CN(C(=O)c1cc2nc(-c3ccco3)cc(C(F)(F)F)n2n1)C12CC3CC(CC(C3)C1)C2	x	1.7

# New compounds follow:
Molecule	CapD inh	AID504770
O/N=C/c1ccnc(SCc2ccccc2)n1	-0.29	-0.25
N#CC1=C(N)OC2=C(C(=O)CCC2)C1c1c(F)cccc1Cl (centres undefined)	x	-0.3
COC(=O)c1cccc(OCC(O)CNCCC2=CCCCC2)c1 (centres undefined)	x	0.15
CCOC(=O)c1c(C)n(Cc2ccccc2)c2ccc(OC(=O)c3ccccc3Cl)cc12	0.07	x
O=C1CN(C(=O)COc2ccc(Cl)cc2)C2(CCCCC2)C(=O)N1	x	-0.65
COC(=O)c1scc(S(=O)(=O)Cc2ccco2)c1N	15.9	x
C=CCn1c(CNc2ccc(C)cc2)nnc1SCC(=O)c1ccccc1	-0.655	0.15
N#Cc1ccsc1NC(=O)c1ccco1	-1.23	-1.15
CCOc1ccc(C2C(N3C(=O)c4ccccc4C3=O)C(=O)N2c2cccc(Cl)c2)cc1 (centres undefined)	-0.505	x
O=C(Oc1ccc(S(=O)(=O)c2ccc(OC(=O)c3cccs3)cc2)cc1)c1cccs1	3.54	-0.05
O=C(CNc1ccncc1)c1c[nH]c2ccccc12	0.36	0.65
CC(=O)NCCc1ccc(S(=O)(=O)Nc2ccc3ncn(C)c(=O)c3c2)cc1	x	-0.7
CN(c1ccc(O)cc1)S(=O)(=O)c1ccccc1	-0.485	2.2
CCS(=O)(=O)N1CCc2cc(C(=O)CSc3nnc(C4CCCCC4)o3)ccc21	x	-0.5
C=C(C)C1CCC2(C)OC(=O)N(Cc3ccccc3)C12C (centres undefined)	-0.12	-0.6

# (further entries)
Molecule	CapD inh	AID504770
O=C(Cn1ncc2c(=O)oc3ccccc3c21)Nc1ccccc1F	-0.24	-0.3
Cc1oc(-c2ccccc2Cl)nc1CSCC(=O)O	-0.83	0.15
O=[N+]([O-])c1ccc2c(c1)C1C(Cl)C(Sc3ccccc3[N+](=O)[O-])CC1C(c1ccc(Cl)cc1)N2 (centres undefined)	2.37	x
COc1ccc2c(CC(=O)OCC(=O)C(C)(C)C)coc2c1	x	0.7
Cc1c(Cl)cccc1N1C(=O)C=CC1=O	0.27	-2.6*
Cc1cc(-c2ccc(N3C(=O)CCC3=O)c(C)c2)ccc1N1C(=O)CCC1=O	x	-0.1
COc1ccc(COC(=O)C2=C(C)NC3=C(C(=O)CCC3)C2c2coc3ccc(C)cc3c2=O)cc1 (centres undefined)	-0.14	x
CC(C)Cc1ccc(-c2cc(=O)[nH][nH]2)cc1	0.595	0.15
Cc1ccc(N=C(NO)c2cnccc2C(F)(F)F)c(C)c1	0.51	-1.25
CCOc1ccc(NC(=O)CN2C(=O)/C(=C3\SC(=S)N(CCC(=O)O)C3=O)c3ccccc32)cc1	0.145	x
c1ccc2c(c1)NCC1CCCN21 (centres undefined)	0.155	-0.15
CCn1c(SCC(=O)Nc2cc(C)on2)nc2sc(C)c(C)c2c1=O	x	-0.3
CCCCc1ccc(/C(C)=C/C(=O)O)cc1	0.185	-0.5
O=c1oc2cc(OCc3ccc(Cl)cc3)ccc2c2c1CCC2	0.495	0.1
Oc1cccc(N=Cc2cc(Br)ccc2O)c1	0.505	1.4

# 4 entries drawn at random from the list so far:
Molecule	CapD inh	AID504770
COc1ccc(-c2nnc(C3CCN(C(=O)c4c(F)cccc4F)CC3)o2)cc1	0.99	2.1
S=C(/N=C(\Nc1ccccc1)c1ccccc1)Nc1ccccc1	-0.825	0.15
COC(=O)C(C)NC(=O)N1CCC2(CC1)NC(=O)c1ccccc1O2 (centres undefined)	0.025	0.05
CC1(C)CC(=O)c2c(nn(-c3ccccc3)c2N)C1	0.055	-1.2

# Next part:
Molecule	CapD inh	AID504770
CCN(CC)S(=O)(=O)c1ccc(C(=O)NC2CCCCC2)cc1	x	0.45
CCCn1c(SCC(=O)N(CC)C2=CCCCC2)n[nH]c1=O	x	-0.35
CC(=O)NC(=O)c1cc2cc([N+](=O)[O-])ccc2oc1=Nc1ccc(Cl)cc1Cl	-0.055	x
COCc1nnc(NC(=O)c2ccc3c(c2)OCO3)s1	1.51	0.2
COC(=O)Cc1cc(=O)n2c(nc3ccccc32)[nH]1	56.8	0.6
Cc1ccc(S(=O)(=O)N=C2C=CC(=NS(=O)(=O)N(C)C)C=C2)cc1	x	-1.35
